Compound activity as filed in PubChem BioAssay.
UCH37 inh – inhibitors of human deubiquitinating enzyme UCH37. Q9Y5K5. purified proteasome/UCH37, Ub-AMC cleavage fluorescence. inhibition, % (concentration not given with the values). 0.33% of 330,000 active;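 active means mean of two replicates above 20%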;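 further: 0% = compound-free wells with enzyme and 100% = wells lacking proteasome; stock transfer was 100 nL into about 20 µL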
Target sequence (Q9Y5K5 whole entry, looked up): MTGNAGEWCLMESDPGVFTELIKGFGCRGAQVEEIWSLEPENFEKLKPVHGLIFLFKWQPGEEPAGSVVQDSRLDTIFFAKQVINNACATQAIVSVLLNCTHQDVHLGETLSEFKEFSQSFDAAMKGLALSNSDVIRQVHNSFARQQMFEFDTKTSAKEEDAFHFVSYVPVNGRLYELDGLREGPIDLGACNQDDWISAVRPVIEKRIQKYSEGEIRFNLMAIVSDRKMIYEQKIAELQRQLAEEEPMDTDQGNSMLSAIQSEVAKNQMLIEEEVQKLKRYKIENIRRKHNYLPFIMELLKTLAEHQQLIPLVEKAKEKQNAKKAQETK
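Material: Human UCH37 enzyme supplied as purified proteasome complex | Schedule: 30 min preincubation with enzyme, 25 min cleavage at room temperature | Detection: AMC fluorescence 355/460 nm | Measure: % inhibition of Ub-AMC cleavage fluorescence | Controls: Wells without proteasome as full block, compound-free enzyme plus substrate as uninhibited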
FGF22 binding – FGF22 (human) thermal shift binding | Q9HCT0 | recombinant FGF22 thermal shift, SYPRO orange fluorescence; percent of sucrose octasulfate shift, DMSO zero | calls only at 9.99 µM | 1.5% of 340,000 active | AID 651658;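 active means melting point raised past a set limit in the mean and every replicate; inconclusive means no clear call; three in four hits are not shown here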
Target sequence (Q9HCT0 whole entry, looked up): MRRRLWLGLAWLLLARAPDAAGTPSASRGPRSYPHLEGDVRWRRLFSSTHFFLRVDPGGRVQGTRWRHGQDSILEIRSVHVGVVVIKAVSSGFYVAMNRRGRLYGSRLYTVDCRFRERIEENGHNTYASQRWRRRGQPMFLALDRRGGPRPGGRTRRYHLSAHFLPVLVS
RanGTP-Impb inh – disruptors of Ran-importin-beta complex formation – biochemical, FRET, CFP-Ran, YFP-importin-beta, homogeneous, primary screen. cell-free CFP-Ran/YFP-importin-beta FRET ratio. inhibition, % (test concentration not listed). 1.1% of 300,000 active. AID 2216;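 active means most replicates above 15%; inconclusive means exactly half above 15%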;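 further: 0% = DMSO wells and 100% = Ran loaded with GDP instead of GTP; wells of about 40 µL received 100 nL stock; the first replicate is given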
Vif A3G – inhibitors of Vif binding to APOBEC3G peptide, primary screen, biochemical, TR-FRET, GST-Vif 1-94, biotin-A3G peptide, dose response retest (AID 1117319) | TR-FRET GST-Vif / biotin-A3G peptide binding; higher % means a stronger effect; test concentration not given here; strong numbers were not always called active | inhibition, %; hits with a dose series show IC50 in µM | 0.57% of 260,000 active;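 active means above the screen mean plus three standard deviations and confirmed in dose response; inconclusive means results disagree or hit not tested in dose response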;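 further: Vif residues 1-94 fused to GST binding biotinylated APOBEC3G peptide 110-148; 0% = full assay without inhibitor and 100% = GST in place of GST-Vif; retest series ran down from 100 µM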
MLL AF4-AF9 inh – MLL-AF4/AF9 protein interaction inhibition; P42568; AlphaScreen, biotin-AF4 peptide binding to FLAG-AF9; inhibition, % at 10 µM; 0.47% of 350,000 active;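 active means every replicate reaching a set inhibition limit, whatever the replicate mean, cut at about 25% in these data; inconclusive means mean inhibition reaches that limit but some replicates miss it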;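 further: 0% = plate neutral control median and 100% = total signal loss; the record names both 10 and 1 µM as test concentration; the first replicate is given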
Target sequence (P42568 whole entry, looked up): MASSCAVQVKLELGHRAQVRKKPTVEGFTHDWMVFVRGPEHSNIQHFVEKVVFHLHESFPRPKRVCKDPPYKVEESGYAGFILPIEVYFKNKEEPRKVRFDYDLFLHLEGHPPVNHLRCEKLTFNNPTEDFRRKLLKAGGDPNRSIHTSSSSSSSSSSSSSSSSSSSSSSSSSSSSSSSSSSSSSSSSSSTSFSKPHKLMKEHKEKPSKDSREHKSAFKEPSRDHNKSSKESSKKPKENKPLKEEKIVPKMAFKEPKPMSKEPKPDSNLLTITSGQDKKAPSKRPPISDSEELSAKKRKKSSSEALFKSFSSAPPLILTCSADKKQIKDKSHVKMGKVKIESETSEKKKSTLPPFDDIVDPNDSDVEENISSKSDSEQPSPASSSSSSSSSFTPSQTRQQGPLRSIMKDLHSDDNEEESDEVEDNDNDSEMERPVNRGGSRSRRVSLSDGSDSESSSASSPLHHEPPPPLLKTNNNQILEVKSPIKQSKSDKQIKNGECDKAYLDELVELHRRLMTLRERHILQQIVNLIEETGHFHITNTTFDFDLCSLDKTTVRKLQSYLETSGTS
Ecoli growth – inhibitors of Escherichia coli growth; OD600, 23 h; stronger effect = lower value; OD600 absorbance (concentration not given with the values); AID 1053175; 0.21% of 330,000 active;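 active means OD600 absorbance below the run mean of sample wells minus 3.6 SD, in any replicate, cut at about 0.56 in these data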;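 further: stock transfer was 300 nL into about 60 µL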
HNF4A DNA FP – change in binding of human HNF4 alpha to DNA | 0.3% of 360,000 active | HNF4a-FITC DNA binding, fluorescence polarization, 1 h | activity change, % at 10 µM | P41235; in the data active means activity change above about 30%, passing the limit was not always enough;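 further: controls were the assay level and a saturating level of protein; the project sought stronger binding though the title names inhibitors; some compounds called inactive have numbers as strong as hits; positive values seem to mean higher polarization but the record does not say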
Active calls of the source: *; i = inactive; ? = inconclusive; · = not tested or not shown.

SMILES	UCH37 inh	FGF22 binding	RanGTP-Impb inh	Vif A3G	MLL AF4-AF9 inh	Ecoli growth	HNF4A DNA FP
Cc1nn(-c2ccccc2)c(C)c1NC(=O)COC(=O)CCc1ccccc1	-1.4	i	5.5	·	-3.7	0.658	3.0
COc1ccccc1OCCNC(=O)c1ccc(C)o1	-3.7	i	1.1	6.6%	16.0	0.62	0.0
COc1cc2[nH]c(=O)n(C3CCCCC3)c(=O)c2cc1OC	0.1	·	3.7	-3.0%	·	0.716	1.2
CN(C)CCNc1oc(COc2cccc(Cl)c2)nc1C#N	0.2	·	-2.8	1.3%	·	0.7	0.1
COCCNC(=S)N1CCN(c2ccc(Cl)cc2)CC1	2.1	i	0.8	1.8%	2.6	0.658	2.1
CCN(C[C@H]1N[C@@](Cc2ccccc2)(C(=O)OC)[C@H]2C(=O)N(Cc3ccccc3)C(=O)[C@@H]12)C(=O)COc1ccccc1	·	i	·	·	0.3	·	-3.7
CCn1c(NC(=O)c2ccco2)c(-c2ccccc2Cl)c(=O)c2ccccc21	4.6	·	-2.4	0.2%	·	0.662	-2.3
Cc1ccccc1NC(=O)NCCCN1CCCC1	3.6	·	1.6	13.9%	·	0.726	2.5
Cc1ccc(C(=O)N(C)CCOc2ccccc2)cc1S(=O)(=O)N1CCOCC1	5.6	i	·	-8.1%	1.7	0.684	4.0
O=C(NCc1ccccc1)C1CCCN(c2ncnc3c2nc2n3CCCCC2)C1 (stereo unspecified)	1.1	i	2.4	·	0.1	0.639	1.9
CC(=O)c1ccc(NC(=O)Cn2c(=O)oc3ccccc32)cc1	1.1	i	2.4	1.4%	-3.8	0.706	-3.5
CCOc1ccc(CCNC(=O)COC(=O)c2c(OC)cccc2OC)cc1OCC	1.3	i	1.1	-6.4%	-9.7	0.677	3.4
COc1ccc(CNC(=O)c2ccc(-n3cncn3)c3ccoc23)cc1OC	·	i	·	·	-0.8	·	3.8
O=c1c2c3c(sc2n(CCN2CCOCC2)c(=O)n1Cc1ccco1)CCCCC3	2.4	·	?	9.7%	·	0.622	3.5
O=C(/C=C/c1cccs1)NC1CC1	4.5	i	21.1*	-4.3%	-0.2	0.725	2.3
Cc1nn(Cc2noc(C(=O)NCc3ccc(F)cc3)n2)c(C)c1Br	1.7	i	2.0	-0.4%	-2.4	0.697	1.6
O=C(CSc1n[nH]c(=O)[nH]c1=O)Nc1ccc2c(c1)C(=O)c1ccccc1C2=O	11.6	i	8.1	6.3%	1.8	0.708	-67.7
CC(=O)c1cc(-c2ccccc2)n(CC(=O)Nc2cccc(C)c2)c1C	2.3	·	3.5	-7.5%	·	0.681	2.3
Cn1c(C(=O)N2CCC(C(=O)N3CCN(Cc4ccc5c(c4)OCO5)CC3)CC2)cc2sccc21	4.5	i	-0.5	2.4%	13.1	0.759	-2.2
O=C1NC2(CCCCC2)N=C1c1ccc(F)cc1	2.4	·	-0.3	2.8%	·	0.691	-2.5
CSc1ccccc1OCc1cc(C(=O)N2CCCC(C)C2)no1 (stereo unspecified)	-0.6	i	4.4	·	-0.6	0.647	1.4
CCCCN1C(C(=O)Nc2cc(C)on2)=C(O)c2ccccc2S1(=O)=O	9.5	i	-4.0	9.2%	-1.9	0.645	3.7
Nc1[nH]ncc1-c1ccc(F)cc1	0.8	i	-1.0	·	0.3	0.688	-0.8
Cc1ccc(Oc2ncc(CN3CC(C)OC(C)C3)s2)cc1 (stereo unspecified)	3.5	·	-5.3	3.6%	·	0.695	2.5
CCOc1ccc(N2CC(C(=O)NCCc3c[nH]c4ccc(OC)cc34)CC2=O)cc1 (stereo unspecified)	0.4	i	1.4	·	-10.3	0.677	3.4

Additional compounds follow:
SMILES	UCH37 inh	FGF22 binding	RanGTP-Impb inh	Vif A3G	MLL AF4-AF9 inh	Ecoli growth	HNF4A DNA FP
Cn1ncc([N+](=O)[O-])c1C(=O)Nc1ccccc1C(=O)O	5.2	i	0.7	·	4.3	0.677	-0.3
Cc1cc(C(=O)OCC(=O)NNC(=O)c2cccs2)ccc1[N+](=O)[O-]	3.5	i	-1.3	0.2%	1.1	0.609	-0.2
O=C(Cn1cc(C(F)(F)F)cc(Cl)c1=O)Nc1ccc(N2CCOCC2)cc1	-1.7	i	-0.3	-7.8%	-2.1	0.734	0.3
O=C(Nc1ccccc1C(=O)N1CCN(Cc2ccccc2)CC1)c1ccccc1	-1.3	i	-0.1	·	1.0	0.693	-1.6
CC(C)(NC(=O)c1cc(Cl)c2ccccc2c1O)C(=O)O	-231.3	i	7.7	0.1%	-2.4	0.677	-0.3
C=CCOc1cccc(CNCc2ccncc2)c1	-1.9	i	1.7	·	7.8	0.653	-2.5
CN1CCN(C(=S)Nc2ccc([N+](=O)[O-])cc2)CC1	3.6	·	-5.2	-3.1%	·	0.709	1.1
Cc1ccnc(Nc2nc3ccccc3o2)n1	2.3	i	-1.3	20.0%	5.5	0.72	-0.2
O=C(O)CCCc1nc2ccccc2s1	0.0	·	7.0	14.6%	·	0.659	-2.5
COC(=O)c1cccc(OCC(O)Cn2cnc3cc(C)c(C)cc32)c1 (stereo unspecified)	1.5	·	1.1	22.9%	·	0.61	-4.0
CSc1cccc(NC(=O)CN(c2cccc(C)c2)S(C)(=O)=O)c1	4.4	·	-2.5	6.6%	·	0.687	1.6
O=C(NCCCN1CCOCC1)c1ccc(-c2ccc(Cl)cc2)o1	-7.2	i	-3.3	9.8%	-0.1	0.692	7.8
O=c1c(Br)c(N2CCCC2)cnn1-c1ccccc1	9.1	·	0.0	·	·	0.702	0.5
CCN1C(=O)[C@@H]2[C@@H]3CN(S(=O)(=O)c4ccc(C)cc4)[C@@H](c4cccc5ccccc45)[C@@H]3C(=O)C[C@@H]2C1=O	·	i	·	·	-0.4	·	-3.3
CC(/C=C/c1ccccc1)=N\NC(=O)CSc1ccccn1	·	i	2.3	·	8.0	·	-0.3
C/C(=N\Nc1nccnc1Cl)c1ccc(Cl)c(Cl)c1	·	i	?	3.5%	-1.9	·	-1.1
Oc1ccc(-c2nnc(-c3ccccc3)c(-c3ccccc3)n2)cc1	5.2	·	0.4	29.7%	·	0.732	·
Cc1ccn(CCC(=O)Nc2ccc(-c3ccno3)cc2)n1	0.3	i	-1.3	·	2.1	0.677	-1.6
CN=C1SC(CC(=O)Nc2cc(Cl)ccc2Cl)C(=O)N1C (stereo unspecified)	5.5	·	-0.6	-5.5%	·	0.71	-4.9
Cc1nc(C(=O)NNC(=O)c2ccccc2)c(C(F)(F)F)o1	4.9	i	2.0	1.9%	-0.6	0.699	3.6
CCCC12CN3CC(C)(CN(C1)C31CCCCC1)C2=O	-1.1	·	0.6	-0.2%	·	0.669	0.3
Cc1cccc(N(Cc2cc(=O)[nH]c3ccccc23)C(=O)CCl)c1	·	i	-1.4	·	1.2	·	-0.3
Cc1cc2nc3c(=O)n(Cc4ccccc4)c(=O)[nH]c3nc2cc1N	·	i	-260.7	21.4%	-2.1	·	-111.5
O=C(NCCCN1CCCC1=O)c1cccc(NS(=O)(=O)c2ccc(Br)cc2)c1	0.5	i	2.4	-1.9%	-30.8	0.689	-3.5
O=C(NCC(c1ccc(F)cc1)N1CCOCC1)c1ccc([N+](=O)[O-])o1 (stereo unspecified)	6.8	i	·	-6.0%	0.5	0.711	-0.3

Additional compounds follow:
SMILES	UCH37 inh	FGF22 binding	RanGTP-Impb inh	Vif A3G	MLL AF4-AF9 inh	Ecoli growth	HNF4A DNA FP
Nc1nc(SCC(=O)Nc2ccc(Cl)cc2C(F)(F)F)n[nH]1	2.6	i	3.2	·	-0.1	0.704	1.7
CCc1ccc(C(=O)Nc2ccc(C)c(NS(C)(=O)=O)c2)cc1	2.0	i	-5.8	-5.1%	1.3	0.68	-2.3
CC(C)(C)NC(=O)NC(=O)CN1CCN(S(=O)(=O)c2ccc3c(c2)OCCO3)CC1	7.2	i	3.4	·	-1.5	0.678	2.0
CCCCC(=O)Nc1cccc(NC(=O)c2cccnc2Cl)c1	2.2	i	-1.7	·	-2.2	0.626	1.8
CC(C)(C)OC(=O)C(C)(C)Sc1nnc(N)s1	3.9	i	-2.1	-1.4%	-0.8	0.663	1.5
Cc1c(Cl)cccc1NC(=O)CCN1CCCC(C)C1 (stereo unspecified)	0.7	·	-4.1	1.6%	·	0.671	-3.0
CCOc1ccc(NC(=O)CCCc2cc(-c3ccc(OCC)cc3)on2)cc1	1.9	·	0.0	-12.1%	·	0.756	3.0
O=[N+]([O-])c1ccc(NCCOc2ccccc2Cl)nc1	5.0	i	-0.7	·	1.5	0.647	-3.8
COc1ccc(CNC(=S)Nc2ccccc2Cl)cc1	2.7	i	-0.3	·	-8.6	0.662	-0.4
CSc1ncccc1C(=O)NC(C)C1CC2CCC1C2 (stereo unspecified)	3.9	i	-3.6	·	-0.5	0.681	-0.6
OC[C@H]1O[C@@H](Oc2ccc(O)cc2)[C@H](O)[C@@H](O)[C@@H]1O	·	i	·	·	-3.1	·	4.5
COc1cc(NC(=O)Cn2nc(C(F)(F)F)c3c2CCCC3)cc(OC)c1OC	0.9	·	6.0	-4.4%	·	0.65	-0.8
CCCCSc1nnc(-c2cc(Br)ccc2N)c(=O)[nH]1	3.7	·	-1.0	-3.5%	·	0.647	-0.7
CC(Cc1ccccc1)=NNc1ccc([N+](=O)[O-])cc1[N+](=O)[O-]	5.5	i	·	-6.5%	8.0	0.738	-2.2
COc1ccc(C2=NN(C(N)=S)C(c3ccco3)C2)cc1 (stereo unspecified)	2.5	i	3.5	-3.1%	7.6	0.674	13.3
Clc1ccc2c(c1)c1ccccc1n2CN1CCOCC1	-0.9	·	-1.7	-6.8%	·	0.515*	-0.1
CN[C@H]1C[C@H]2c3cc(-c4ccccc4)ccc3CCN2C(=O)[C@H]1[C@H](C)O	·	i	·	-4.1%	4.3	·	0.6
CC1(C)NC(=O)N(Cc2cc(=O)n3ccsc3n2)C1=O	-1.0	i	-2.4	-2.8%	-4.6	0.671	-10.7
COC(=O)c1ccc(/C=C/C(=O)OCC(=O)Nc2sccc2C(N)=O)cc1	0.3	·	·	18.2%	·	0.675	-0.8
COc1ccc(N(C)C(=O)c2cn(CC(C)C)c(=O)c3cc(OC)c(OC)cc23)cc1	-2.3	i	?	-0.5%	2.1	0.688	24.3
COc1cc(OC)cc(C(=O)NC(C(=O)Nc2ccc3c(c2)OCCO3)C(C)C)c1 (stereo unspecified)	5.5	i	·	1.7%	1.0	0.673	4.8
O=C(O)CCC(=O)Nc1nc(-c2ccccc2)cs1	-5.9	·	-2.5	0.8%	·	0.72	0.1
CCOc1ccc(N2CC(C(=O)NCCN3C(=O)S/C(=C\c4ccc(OC)cc4)C3=O)CC2=O)cc1 (stereo unspecified)	4.4	i	-2.0	12.4%	9.8	0.717	4.2
CCC(=O)NCc1c(C)c(C)n(Cc2ccccc2)c1-n1cccc1	0.2	i	-2.4	2.5%	1.6	0.632	0.0
CCN(C(=S)Nc1cc(S(=O)(=O)N2CCOCC2)ccc1Cl)c1cccc2ccccc12	-26.5	i	3.0	11.3%	3.9	0.661	-0.5
CC1(C)Cc2cccc(OCC(=O)N3CCN(S(=O)(=O)c4ccc(F)cc4)CC3)c2O1	0.4	·	8.1	-2.5%	·	0.686	0.9
Fc1ccc(/C=C2\CCCC3=C2Nc2ncnn2C3c2ccc(F)cc2)cc1 (stereo unspecified)	-15.0	·	-2.0	1.1%	·	0.676	-5.3

3 compounds out of the list, arranged by formula weight, ascending.
SMILES	UCH37 inh	FGF22 binding	RanGTP-Impb inh	Vif A3G	MLL AF4-AF9 inh	Ecoli growth	HNF4A DNA FP
CC(C)(C)OC(=O)C(C)(C)Sc1nnc(N)s1	3.9	i	-2.1	-1.4%	-0.8	0.663	1.5
Cc1ccn(CCC(=O)Nc2ccc(-c3ccno3)cc2)n1	0.3	i	-1.3	·	2.1	0.677	-1.6
Cn1c(C(=O)N2CCC(C(=O)N3CCN(Cc4ccc5c(c4)OCO5)CC3)CC2)cc2sccc21	4.5	i	-0.5	2.4%	13.1	0.759	-2.2

This is a subset; rates above refer to the full screens.
